# High-throughput results: PubChem BioAssay, National Center for Advancing Translational Sciences (NCATS)
# VDR inhibitor: blocks the human vitamin D receptor; Potency, µM, inactives show max response, negative = inhibition, actives largely listed as inhibitors; P11473; 400,000 compounds, 0.93% hits; VDR-SRC2-3 peptide fluorescence polarization, 2 h; active means well fitted inhibition curve with a large enough effect; inconclusive means small, poorly fitted or top-dose-only effect, or another doubt; inactive means no such curve, though single readings can be large or run the other way; further: series mostly up to about 120 µM
# Target sequence (P11473 whole entry, looked up): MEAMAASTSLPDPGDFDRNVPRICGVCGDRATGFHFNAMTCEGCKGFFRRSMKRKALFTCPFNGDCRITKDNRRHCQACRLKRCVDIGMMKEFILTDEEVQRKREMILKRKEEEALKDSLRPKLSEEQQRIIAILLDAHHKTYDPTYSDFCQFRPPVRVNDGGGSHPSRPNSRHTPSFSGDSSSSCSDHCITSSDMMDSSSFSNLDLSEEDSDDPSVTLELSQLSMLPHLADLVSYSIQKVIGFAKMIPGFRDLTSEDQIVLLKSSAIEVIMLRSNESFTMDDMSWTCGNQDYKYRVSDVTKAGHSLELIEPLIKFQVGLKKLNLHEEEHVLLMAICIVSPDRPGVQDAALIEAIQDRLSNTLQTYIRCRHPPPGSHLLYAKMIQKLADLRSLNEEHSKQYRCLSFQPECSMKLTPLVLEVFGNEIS
#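 FP read-out; VDR + SRC2-3 coactivator peptide; 23 nl compound by pintool; 2 h RT incubation; reagents held at 4 deg C, protected from light.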
# * hit, by the source's call; ? = inconclusive; & = joins results of further samples. On the % scale 0 is the no-effect control and ±100 the full control effect; potency means the concentration at half of the fitted maximal effect. Only part of the results is shown; rates above refer to the full screens.
# Start of the listing, in advance, 3 compounds:
SMILES,VDR inhibitor
CC(C)c1ccc(N2C(=O)CSC23C(=O)N(Cc2ccccc2F)c2ccccc23)cc1 (stereo not given),3%
O=S(=O)(c1ccc(Cl)cc1)N1CCC(c2ccncc2)CC1,12%
COCCCN1CC(=O)N2C(c3ccc(C)cc3)c3[nH]c4ccccc4c3C[C@H]2C1=O (stereo not given in full),-3%

# The list itself (from the top)
SMILES,VDR inhibitor
CC(C)c1ccc(N2C(=O)CSC23C(=O)N(Cc2ccccc2F)c2ccccc23)cc1 (stereo not given),3%
O=S(=O)(c1ccc(Cl)cc1)N1CCC(c2ccncc2)CC1,12%
COCCCN1CC(=O)N2C(c3ccc(C)cc3)c3[nH]c4ccccc4c3C[C@H]2C1=O (stereo not given in full),-3%
Cc1cc(C)c(NC(=O)COC(=O)Cn2nc(-c3ccccc3)oc2=O)c(C)c1,-6%
O=C(Nc1cc(N2CCCCC2)ncn1)c1ccccc1,6%
Cc1cc(N/C=C/C(=O)c2cccs2)ccc1F,-7%
FC(F)(F)c1ccccc1NC(=S)NN1CCOCC1,14%
CCOc1ccc(C(=O)NCc2ccccc2OC)cc1,18%
Cc1cc(C)n(C(=O)CCCCCC(=O)n2nc(C)cc2C)n1,-4%
O=C(Nc1ccc(Br)cc1)c1cc(-c2cccs2)nc2ccccc12,-4%
Fc1cccc(CN2CCN(Cc3nc(-c4cnccn4)no3)CC2)c1,-6%
CN(C)CC(O)CN(c1ccccc1)c1ccccc1 (stereo not given),5%
CCNC(=O)c1ccc(-n2nc(C)cc2-c2ccccc2)cc1,-12%
CCN(CC)C(=O)CSc1nc2ccccc2c(=O)n1CC,-4%
COc1ccc(C(=O)/C=C/N2CCCCC2)cc1OC,-1%
CC(NC(=O)C(NS(=O)(=O)c1cccs1)C(C)C)c1ccc(S(N)(=O)=O)cc1 (stereo not given),-6%
O=C(CSc1ccccc1)N(c1ccc(Br)cc1)c1nccs1,-3%
COc1cc(CNCCc2ccc(S(N)(=O)=O)cc2)ccc1OCc1ccc(Cl)cc1,-5%
CC(C)Oc1ccc(NC(=O)c2cc3ccccc3o2)cc1,11%
COc1cccc(CN(C)CC(=O)Nc2cccc(S(=O)(=O)N(C)c3ccccc3)c2)c1OC,-13%
C/C=C/Cn1c(Br)nc2c1c(=O)n(C)c(=O)n2C,-2%
O=c1[nH]c(N/N=C/c2cc3c(cc2[N+](=O)[O-])OCO3)nc2ccccc12,-11%
CC(NC(=O)c1ccc(Cl)cc1)c1nnc(SCc2ccc([N+](=O)[O-])cc2)n1C (stereo not given),9%
CS(=O)(=O)c1ccc(C(=O)Nc2cc(S(C)(=O)=O)ccc2Cl)cc1,-2%

# Some values from above:
# O=C(Nc1cc(N2CCCCC2)ncn1)c1ccccc1 in VDR inhibitor is listed with 6%
# CN(C)CC(O)CN(c1ccccc1)c1ccccc1 (stereo not given) in VDR inhibitor is listed with 5%

# Returning to the listing; the 5 compounds before the break are reprinted first.
SMILES,VDR inhibitor
COc1cccc(CN(C)CC(=O)Nc2cccc(S(=O)(=O)N(C)c3ccccc3)c2)c1OC,-13%
C/C=C/Cn1c(Br)nc2c1c(=O)n(C)c(=O)n2C,-2%
O=c1[nH]c(N/N=C/c2cc3c(cc2[N+](=O)[O-])OCO3)nc2ccccc12,-11%
CC(NC(=O)c1ccc(Cl)cc1)c1nnc(SCc2ccc([N+](=O)[O-])cc2)n1C (stereo not given),9%
CS(=O)(=O)c1ccc(C(=O)Nc2cc(S(C)(=O)=O)ccc2Cl)cc1,-2%
O=C(Nc1nnc(S(=O)(=O)N2CCN(c3ccc(F)cc3)CC2)s1)c1ccco1,3%
COc1cc2ccccc2cc1C(=O)Nc1ccccc1Cl,-15%
Cc1ccc(NC(=O)CCn2c(=O)[nH]c3ccsc3c2=O)cc1,-15%
CC1CCN(C(=O)CN2C(=O)NC(c3ccccc3)(c3ccccc3)C2=O)CC1,-28%
O=[N+]([O-])c1ccc2nc(CN3CCCCC3)[nH]c2c1,-11%
COc1ccc(CNc2ncnc3ccc(-c4ccccc4OC)cc23)c(OC)c1,-7%
O=C(O)C1CC(=O)N(c2ccc(OCc3ccccc3)cc2)C1 (stereo not given),18%
CCc1cccc(C)c1NC(=O)CN1C(=O)c2c(c3ccccc3n2C)C1c1ccc(OC)cc1 (stereo not given),1%
Cc1ccc(-c2c(C(=O)N/N=C/C3CCCCC3)nnn2-c2nonc2N)cc1,-1%
CCOC(=O)COc1ccc2c(c1)c(C(C)=O)c(C)n2-c1ccccc1,-12%
CCOC(=O)c1ccc(NC(=O)CCc2nc(-c3ccc(Cl)cc3)no2)cc1,0%
O=c1[nH]c(NCCO)c(N=Cc2ccccc2)c(=O)[nH]1,-28%
COc1cc(C(O)P(=O)(OC2CCCCC2)c2ccc(N(C)C)cc2)cc(OC)c1OC (stereo not given),-10%
CCOc1ccc(C(=O)c2cn(CC(=O)Nc3ccc4c(c3)OCO4)c3ccc(OC)cc3c2=O)cc1,-10%
COc1cccc(-c2nc(CS(=O)(=O)CC(=O)NCCCN3CC(C)CC(C)C3)c(C)o2)c1 (stereo not given),-11%
CCCn1c(S(=O)(=O)O)nc2ccccc21,-1%
OC[C@H]1O[C@@](CO)(O[C@H]2O[C@H](CO)[C@@H](O)[C@H](O)[C@H]2O)[C@@H](O[C@H]2O[C@H](CO)[C@@H](O)[C@H](O)[C@H]2O)[C@@H]1O,-4%
O=C(Nc1ccc(F)c(Cl)c1)c1cccnc1,?
Cc1ccccc1-c1nc(CN2CCC(C(=O)NCc3ccco3)CC2)c(C)o1,-2%
COc1cc2oc(=O)c3c4c(cc5ccc(c1CCN(C)C)c2c53)OCO4,40µM*
CC(C)C[C@H](N)C(=O)N1CCC(C(=O)N[C@H](C(=O)NCc2ccc(F)cc2)C(C)C)CC1,-7%
COc1ccc(S(=O)(=O)CC(=O)c2cc3cc(Br)ccc3oc2=O)cc1,?
CN1CCN(c2ccc([N+](=O)[O-])c(-n3nc(-c4ccccc4)c4ccccc4c3=O)c2)CC1,9%
Cc1cc(CSc2ccccc2)ccc1NC(=O)c1ccc(Cl)c([N+](=O)[O-])c1,-17%
CC(C)c1ccc(OCC(=O)NC(=S)Nc2ccc3c4c(cccc24)CC3)cc1,-22%
COCCn1nnnc1C(CC(C)C)N1CCN(c2ccccc2)CC1 (stereo not given),-5%
O=C(CCS(=O)(=O)c1cc(Br)cc2c1N(C(=O)C1CC1)CC2)N1CCN(c2cccc(Cl)c2)CC1,9%
CCN1CCCC1CN(Cc1cc2c(C)cc(C)cc2[nH]c1=O)C(=O)NC1CCCCC1 (stereo not given),16%
CCOc1cc(-c2nccc3cc(OC)c(OC)cc23)cc(OCC)c1OCC,0%&-5%
NCCc1nnc(SCC(=O)Nc2cccc(Cl)c2)o1,-3%
CC(C)(C)NCC(O)COc1ccccc1C(C)(C)C (stereo not given),-12%
CSCCC(NC(=O)c1cccc(S(=O)(=O)N2CCOCC2)c1)C(=O)Nc1cccc(C)c1 (stereo not given),15%
CCC/C=N/NC(=O)CNC(=O)c1ccccc1Cl,-25%
Cc1ccn2c(=O)c(C(=O)NCCc3ccc(S(N)(=O)=O)cc3)c(O)nc2c1,10%
CCCCCn1c(CCCNC(=O)CC)nc2ccccc21,-8%
CN(C)c1ncc2nc(-c3ccccc3)c(=O)n(C)c2n1,-5%
COc1ccc(C)cc1NC(=O)c1cnc2scc(C)n2c1=O,0%
C#CC(C)(O)C1CC(CC(=O)O)C1(C)C (stereo not given),7%
CC(=O)c1ccccc1OCCCCN1CCCCC1,-5%
N#C/C(=C\c1ccc(F)cc1)c1n[nH]c(Cn2cncn2)n1,-9%
COC(=O)c1c(C)oc2ccc(N(C(=O)c3ccncc3)S(=O)(=O)c3cc(C)ccc3C)cc12,-18%
CSc1ccc(/C=N/N2CCN(Cc3ccc(C)cc3C)CC2)cc1,-4%
CC(=O)Nc1ccc(SC[C@H](CC(C)C)N2CCN(CC(C)C)CCC2=O)cc1,-23%
COC(=O)c1ccccc1NC(=O)/C=C/c1ccco1,1%
CC(C)NC(=O)c1nn(-c2ccccc2F)nc1CO,5%
CC(C)C(=O)NC(C)C(c1cccs1)N1CCOCC1 (stereo not given),-12%
Cc1ccc(S(=O)(=O)Nc2ccc(-n3c(C)nc4ccccc4c3=O)cc2)cc1,-21%
O=C(O)C1CC=CCC1C(=O)N1CCCC1 (stereo not given),12%
O=C(CN1C(=O)/C(=C\c2cccc(Br)c2)Oc2ccccc21)NCC1CCCO1 (stereo not given),-21%
COc1ccccc1N1CCN(C(=O)CN(c2ccccc2OC)S(=O)(=O)c2ccccc2)CC1,-2%
Cc1nnsc1SCCNC(=O)Nc1ccc(Cl)cc1,10%
O=C(/C=C/c1ccc(F)cc1)Nc1nc2n(n1)C(c1ccc(Cl)cc1)C=C(c1ccccc1)N2 (stereo not given),4%
O=C(COC(=O)c1ccccc1Br)NCc1cccs1,18%
CC(C)Cc1nnc(NC(=O)CCC(=O)N2CCN(c3ccc(Cl)cc3)CC2)s1,7%
CC(=O)NC(=C(Cl)Cl)S(=O)(=O)c1ccccc1,9%
Cc1c(OCC(=O)N2CCC[C@@H]2C(=O)O)ccc2c3c(c(=O)oc12)CCC3,5%
O=C(NN=C1C2CC3CC1CC(Cl)(C3)C2)c1ccccn1,-23%
CCN(CC)c1nc(SCC(=O)O)nc(N(CC)CC)n1,-13%
CSc1ccccc1NC(=O)CCn1c(=O)oc2ccccc21,11%
COC(=O)C1C(=O)C2=C(CC1C)NC(C)=C(C(=O)OC(C)C)C2c1ccc(OC)c(O)c1 (stereo not given),-17%
# Next compounds follow.
SMILES,VDR inhibitor
CNCc1ccccc1OCc1ccc(F)cc1,-5%
COc1ccc(CCNC(=O)CCN2C(=O)C(C)Oc3ccc(C)cc32)cc1OC (stereo not given),2%
Cc1cccc(NC(=O)Cn2nnc(C(=O)NCc3cccs3)c2N)c1C,-22%
Cc1ccc(S(=O)(=O)N2CCCCC2)cc1C(=O)OCC(=O)NC(=O)NC12CC3CC(CC(C3)C1)C2,-8%
Cc1cc(C)n2cc(COc3ccccc3)nc2n1,-10%
Cc1ccc(NC(=O)C2CCN(S(=O)(=O)c3ccc4c(c3)NC(=O)C(C)S4)CC2)c(C)c1 (stereo not given),-10%
COc1ccccc1N1CCN(C(=O)c2oc3cc(C)cc(C)c3c2C)CC1,2%
CCCCCCCCCCCCCCCCC(C(=O)O)C(O)(CC(=O)O)C(=O)O (stereo not given),10µM*
CN1C(=O)S/C(=C\c2ccccc2OCc2ccc(C(=O)O)cc2)C1=O,-19%
CC(C)CN1CCN(Cc2ccc(C#CC(C)(C)O)cc2)CC1CCO (stereo not given),6%
COc1ccc(/C=N/NC(=O)c2ccc[nH]2)cc1,0%
COc1ccc(S(=O)(=O)N2CCC(C(=O)Nc3cccc(Cl)c3)CC2)cc1OC,12%

# 6 structures out of the list, ordered by SMILES length, rising:
SMILES,VDR inhibitor
CNCc1ccccc1OCc1ccc(F)cc1,-5%
CC(C)CN1CCN(Cc2ccc(C#CC(C)(C)O)cc2)CC1CCO (stereo not given),6%
CCCCCCCCCCCCCCCCC(C(=O)O)C(O)(CC(=O)O)C(=O)O (stereo not given),10µM*
COc1ccccc1N1CCN(C(=O)c2oc3cc(C)cc(C)c3c2C)CC1,2%
COc1ccc(CCNC(=O)CCN2C(=O)C(C)Oc3ccc(C)cc32)cc1OC (stereo not given),2%
Cc1ccc(S(=O)(=O)N2CCCCC2)cc1C(=O)OCC(=O)NC(=O)NC12CC3CC(CC(C3)C1)C2,-8%

# Other compounds.
SMILES,VDR inhibitor
COc1cccc(NC(=O)c2cccs2)c1,10%
O=C(NOCc1ccccc1)OCc1ccccc1,4%
CCn1c(SCC(=O)Nc2nc(-c3ccccc3)cs2)nnc1-c1ccccc1O,5%
COc1ccc(S(=O)(=O)c2c(Nc3ccc(F)cc3)sc(C(=O)c3ccc4c(c3)OCO4)c2N)cc1,4%
S=C(c1ccc(-c2ccc(Cl)c(Cl)c2)o1)N1CCOCC1,-4%
CCN1CCN(S(=O)(=O)c2ccc(Cl)c(C(=O)Nc3nnc(C)s3)c2)CC1,0%
COc1cc(OC)cc(-c2nc3ccccc3c(=O)o2)c1,-2%
CN(C)S(=O)(=O)c1cc(NC(=O)CN2CCN(c3ccccc3)CC2)ccc1Cl,-17%
Cc1ccc(C(=O)C(C)OC(=O)CN2C(=O)NC3(CCCC3)C2=O)cc1C (stereo not given),-4%
COc1ccc([C@@H]2[C@@H]3C(=O)N(C(C)(C)C)C(=O)[C@@H]3[C@]3(Cc4ccccc4)C(=O)N(c4cccc(Br)c4)C(=O)N23)cc1,-6%
COc1cccc(C2NC(=O)c3ccccc3O2)c1OC (stereo not given),-6%
CC(NC(=O)CSc1nc(-c2ccccc2F)nc2cc(=O)[nH]n12)c1nc2ccccc2n1C (stereo not given),10%
CCOC(=O)C(NC(=O)CC)(Nc1nc2c(s1)CCCC2)C(F)(F)F (stereo not given),15%
CCn1c(Cc2ccccc2)nnc1SCC(=O)Nc1ccc(S(N)(=O)=O)cc1,-1%
COc1ccc2c(Cl)c(C(=O)NCCCn3ccnc3)sc2c1,7%
Cc1cccc(C)c1NC(=O)COc1ccccc1C(=O)Nc1ccc(Br)cn1,-4%
CCN(C(=O)c1ccco1)c1nc(CC(=O)Nc2ccc(Cl)cc2)cs1,12%
CCCC[C@@H]1C=C(C(=O)O)[C@H](c2ccc(Br)cc2)N1S(=O)(=O)c1ccc(C)cc1,-18%
CC1CCC2(CC1)NC(=O)N(CC(=O)c1cn(CCC#N)c3ccccc13)C2=O (stereo not given),-14%
Cn1c(=O)c2c(SCC(=O)N3CCOCC3)nc(C3CC3)nc2n(C)c1=O,-8%
COc1ccc(C)cc1NC(=S)N1CCN(c2ccccn2)CC1,12%
CC(=O)C1=C(O)C(=O)N(c2ccc(Br)cn2)C1c1ccccc1[N+](=O)[O-] (stereo not given),0%
COc1ccc(CC(=O)Nc2ccc(N3CCOCC3)cc2)cc1S(=O)(=O)N1CCOCC1,-17%
